eIF4H FP inh – inhibitors of RNA binding by human eIF4H | eIF4H fluorescence polarization binding assay | inhibition, % at 35 µM | 290,000 tested, 0.94% active | AID 2012;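 active means 50% or more with normal probe brightness, or confirmed in later tests; inconclusive means above 50% with abnormal brightness, or retests that disagree; inactive means below 50% or failed in later tests; about a fifth of its hits are not listed in these tables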;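 further: calls also rest on retests at 20 µM and on dose response follow-up; 0% = protein and probe with vehicle and 100% = probe without protein; strong numbers were not always called active; many hits fall short of the cut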
MT1-MMP act inh – MT1-MMP (human) activation inhibition. 360,000 tested, 0.061% active. HT1080 RFP-PRO-GFP cells, GFP/RFP ratio fluorescence, overnight; percent of plate control window, DMSO zero. P50281. GFP/RFP ratio change, % at 20 µM. AID 651647;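 active means GFP/RFP ratio change of at least 30% with cell ATP level not reduced by more than half and red fluorescence within 50% of control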; further: strong numbers were not always called active
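Assay system – RFP-PRO-GFP reporter HT1080 cells · Compound dosing – single dose of 20 µM compound, 1% DMSO final · Incubation – overnight compound exposure at 37 °C · Measure – GFP/RFP fluorescence ratio · Benchmarks – DMSO wells and RFP-L50D-GFP cells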
CSC inhib – cancer stem cell inhibition; cancer stem cell-like cells viability, luminescence; inhibition, % at 7.5 µM; 300,000 tested, 1.1% active; AID 2717;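 active means mean at 75% or more and at least half the replicates too; inconclusive means mean and replicates disagree; tested in HMLE shEcad cells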;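 further: 0% = median of negative and 100% = median of positive control wells; the first replicate is given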
Rce1 inhib – yeast Ras-converting enzyme inhibition. Q03530. yeast membranes, quenched prenylated peptide cleavage fluorescence. calls only. 290,000 tested, 0.27% active. AID 2563;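 active means fall in fluorescence gain of 50% or more versus controls, with final raw signal at or below 3038400; inconclusive means same 50% fall but final raw signal above 3038400; inactive means fall in fluorescence gain under 50%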;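 further: plate controls were neutral control wells for no effect and wells lacking membranes for full effect; tested at 10 µM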
Yeast UUG start – modulators of start codon recognition fidelity in yeast. S. cerevisiae UUG-firefly luciferase reporter, luminescence/redox ratio. activity score, % at 18.7 µM. 350,000 tested, 0.13% active. AID 602363;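 active means replicate mean at a twofold rise or more, about +100% in these data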;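 further: firefly luciferase made from a UUG start codon reports start codon fidelity; reporter light over untreated wells divided by growth signal over untreated wells; some hits fall short of that in this replicate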
PABP FP inh – PABP-poly(A) binding inhibition; P11940; PABP-poly(A) RNA binding, fluorescence polarization; inhibition, % at 35 µM; 290,000 tested, 1% active; AID 2014;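 active means 50% or more with normal probe brightness, or confirmed in later tests; inconclusive means above 50% with abnormal brightness, or retests that disagree; inactive means below 50% or failed in later tests; about a fifth of its hits are not listed in these tables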;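 further: calls also rest on retests at 20 µM and on dose response follow-up; controls were probe without protein and protein plus probe with vehicle; some compounds called inactive have numbers as strong as hits; many hits fall short of the cut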
Target sequence (P11940 whole entry, looked up): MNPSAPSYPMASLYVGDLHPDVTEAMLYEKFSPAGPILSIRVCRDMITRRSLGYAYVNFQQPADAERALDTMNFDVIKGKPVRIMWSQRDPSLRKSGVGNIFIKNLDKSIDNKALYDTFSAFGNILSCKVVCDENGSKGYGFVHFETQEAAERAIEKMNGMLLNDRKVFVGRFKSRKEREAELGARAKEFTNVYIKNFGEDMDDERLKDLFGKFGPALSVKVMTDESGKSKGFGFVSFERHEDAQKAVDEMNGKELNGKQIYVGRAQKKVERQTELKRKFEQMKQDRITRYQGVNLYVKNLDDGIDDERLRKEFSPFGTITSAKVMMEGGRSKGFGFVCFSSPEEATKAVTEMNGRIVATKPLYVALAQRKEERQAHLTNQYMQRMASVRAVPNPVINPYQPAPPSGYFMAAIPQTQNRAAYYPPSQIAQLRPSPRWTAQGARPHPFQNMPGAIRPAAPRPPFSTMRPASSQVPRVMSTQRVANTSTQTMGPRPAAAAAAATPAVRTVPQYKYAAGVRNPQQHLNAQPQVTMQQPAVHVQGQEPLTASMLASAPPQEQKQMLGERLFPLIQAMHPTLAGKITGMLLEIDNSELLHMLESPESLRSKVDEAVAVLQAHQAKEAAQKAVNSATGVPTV
HIV Env fusion – blocks HIV Env-driven cell-cell fusion. 360,000 tested, 1.1% active. inhibition, % at 12.3 µM. HeLa-JRFL Env/CEM21 cell fusion, luciferase;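 active means mean replicate inhibition score of at least 50 and every replicate individually at or above 50; inconclusive means only one of the two criteria met; inactive means mean below 50 and not all replicates reaching 50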;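 further: 0% = plate neutral controls and 100% = maraviroc near 300 nM; one replicate is shown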
eIF4H FP inh retest – also measured in eIF4H FP inh; calls as there; inhibition, %; compound at 20 µM; confirmation average;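 mean of two retest wells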
PABP FP inh retest – further read-out of PABP FP inh, marked with its call; inhibition, %; compound at 20 µM; confirmation repeats;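 mean of two retest wells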
MT1-MMP act inh RFP – second read-out of MT1-MMP act inh, no call of its own (marks repeat the call); RFP signal change, %; measured here: RFP expression control read;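 0 = vehicle wells; hits needed this value within 50% of zero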
* = called active by the depositor; i = inactive; ? = inconclusive; / = not tested or not shown; & = joins results of further samples. An unsorted share of the library; overall some 3% were active at least once.

SMILES	eIF4H FP inh	MT1-MMP act inh	MT1-MMP act inh RFP	CSC inhib	Rce1 inhib	Yeast UUG start	PABP FP inh	HIV Env fusion	others
C[C@H]1CN([C@@H](C)CO)S(=O)(=O)c2ccc(C#CC(C)(C)O)cc2O[C@H]1CN(C)Cc1ccccc1	/	-1	2	/	/	-13&9&-1	/	-37
Cn1nnnc1SCC(=O)c1cccs1	-12	5	3	-1	i	-18	-9	-42
Cc1ccc(S(=O)(=O)NCC(=O)OCc2ccccc2)cc1	-3	-3	2	-1	i	0	12	4
CCn1cc(C(=O)OCC(=O)c2ccccc2)c(=O)c2ccc(C)nc21	4	0	1	/	i	/	-10	8
CC1(c2ccccc2)NC(=O)N(CC(=O)N2CCc3ccccc32)C1=O (stereo not drawn)	/	1	1	/	/	3	/	-20
O=C(O/N=C(\c1ccccc1)c1ccncc1)c1ccccc1F	-3	-4	0	11	i	/	-3	20
O=C(CSc1nnc(NC(=O)c2ccc(F)cc2)s1)NC1CCCC1	-6	3	2	-4	i	-27	-4	-11
COc1ccc(NC(=O)C2CC(=O)OC23CCCCC3)cc1 (stereo not drawn)	8	-1	0	-1	i	-15	-4	17
COCCCNC(=S)Nc1ccccc1C	-10	1	4	-8	i	/	-13	-2
COC(=O)c1sccc1NC(=S)Nc1cc(C)cc(C)c1	0	5	7	-12	i	-21	-3	/
Cc1ccc(OCC(=O)Nc2cc(C)on2)c([N+](=O)[O-])n1	-5	0	2	4	i	-18	-10	-13
COc1ccc(-c2c(C#N)c(N)nc3c2c(=O)n(C)c(=O)n3C)cc1Cl	/	-1	-2	0	i	-23	/	/
CC(=O)Nc1cc(C(=O)NCc2ccco2)ccc1Sc1ccc(C)cc1	16	3	7	26	i	-29	2	/
COc1ccc(OC(C)C(=O)Nc2cccc(F)c2)cc1 (stereo not drawn)	-1	1	-1	14	i	/	5	13
O=c1[nH]c(-c2ccccc2)nn1-c1ccc(Br)cc1Br	-3	7	1	-12	/	-7	-3	3

Brought forward from above: 4 compounds; new compounds follow.
SMILES	eIF4H FP inh	MT1-MMP act inh	MT1-MMP act inh RFP	CSC inhib	Rce1 inhib	Yeast UUG start	PABP FP inh	HIV Env fusion	others
COc1ccc(-c2c(C#N)c(N)nc3c2c(=O)n(C)c(=O)n3C)cc1Cl	/	-1	-2	0	i	-23	/	/
CC(=O)Nc1cc(C(=O)NCc2ccco2)ccc1Sc1ccc(C)cc1	16	3	7	26	i	-29	2	/
COc1ccc(OC(C)C(=O)Nc2cccc(F)c2)cc1 (stereo not drawn)	-1	1	-1	14	i	/	5	13
O=c1[nH]c(-c2ccccc2)nn1-c1ccc(Br)cc1Br	-3	7	1	-12	/	-7	-3	3
CCOC(CNC(=O)C(=O)Nc1cc2c3c(c1)CCN3C(=O)CC2)OCC	-6	1	2	2	i	-9	2	7
COc1ccc(CCNC(=O)CSc2nc3ccccc3o2)cc1	-4	5	4	-1	i	/	2	/
COc1cc(CNCc2cccs2)ccc1OCC(=O)NC(C)(C)C	0	-3	0	-10	i	-10	6	/
Cc1cccn2c(=O)c3cc(C(=O)NC4CCCC4)c(=N)n(C4CCCC4)c3nc12	-10	9	-8	8	i	9	-9	/
N#C/C(=C(/O)CN1CCOCC1)c1nc(-c2ccccc2)cs1	-6	-7	3	/	i	-12	16	-6
CCc1nc(SCc2ccc(OC)c(Br)c2)n[nH]1	5	6	2	-1	i	/	2	-40
COc1nc(NCCc2ccc(OC)c(OC)c2)nc(OC)n1	-2	-4	-3	-6	/	-8	-6	/
COC(=O)c1sc(NC(=O)/C=C/c2ccccc2Cl)nc1C	-25	4	-3	1	i	/	-16	-34
Cc1ccc(-c2csc(NC(=O)CSc3nc4ccccc4o3)n2)cc1	-2	-6	-1	8	i	-19	-10	?
CN(C)C(=O)CSc1nc2ccccc2n1CC(=O)N1CCN(c2ccccc2)CC1	6	2	0	4	i	1	1	-20
COc1ccc(NC(=O)C[C@H]2C(=O)N(CCc3ccccc3)C[C@@H]2CSC)cc1	/	3	6	/	/	-12	/	-27
COc1ccc(CN(CC(=O)NC2CCCC2)C(=O)CCC(=O)Nc2nc(C)cs2)cc1	-10	-3	1	-9	/	-12	8	1
C=CCS(=O)(=O)N1CCCC(N2CCN(c3ccccc3OC)CC2)C1 (stereo not drawn)	-1	4	4	-9	i	-10	1	4
CCOc1cc(/C=C2\CN(C)C/C(=C\c3ccc(O)c(OCC)c3)C2=O)ccc1O	-2	-10	-27	105*	i	4	2	-310
COc1ccccc1C(=O)NNC(=O)c1ccccc1[N+](=O)[O-]	0	1	4	-15	i	/	-5	-5

Brought forward from above: six compounds, then new ones.
SMILES	eIF4H FP inh	MT1-MMP act inh	MT1-MMP act inh RFP	CSC inhib	Rce1 inhib	Yeast UUG start	PABP FP inh	HIV Env fusion	others
CN(C)C(=O)CSc1nc2ccccc2n1CC(=O)N1CCN(c2ccccc2)CC1	6	2	0	4	i	1	1	-20
COc1ccc(NC(=O)C[C@H]2C(=O)N(CCc3ccccc3)C[C@@H]2CSC)cc1	/	3	6	/	/	-12	/	-27
COc1ccc(CN(CC(=O)NC2CCCC2)C(=O)CCC(=O)Nc2nc(C)cs2)cc1	-10	-3	1	-9	/	-12	8	1
C=CCS(=O)(=O)N1CCCC(N2CCN(c3ccccc3OC)CC2)C1 (stereo not drawn)	-1	4	4	-9	i	-10	1	4
CCOc1cc(/C=C2\CN(C)C/C(=C\c3ccc(O)c(OCC)c3)C2=O)ccc1O	-2	-10	-27	105*	i	4	2	-310
COc1ccccc1C(=O)NNC(=O)c1ccccc1[N+](=O)[O-]	0	1	4	-15	i	/	-5	-5
COc1cc(-c2nnc(SCC(=O)c3cc(C)n(CC4CCCO4)c3C)o2)cc(OC)c1OC (stereo not drawn)	70*	-3	-6	44	i	6	107*	-21	eIF4H FP inh retest=53*;PABP FP inh retest=72*
Nc1c(-c2ccc(Cl)cc2)cnn1-c1cc(C(F)(F)F)cc(C(F)(F)F)c1	-12	3	-2	-4	i	-26	-4	-128
Cc1nn(C(=O)C2CC2)c(C)c1Sc1ccc(Cl)cc1	-4	3	5	-5	i	1	-13	/
NCCCC[C@H]1CNC(=O)C(=O)N1CCc1cccc(F)c1	10	1	-2	-18	i	-10	10	-11
CN(CC(=O)Nc1ccccc1Cl)C(=O)CN1C(=O)NC(c2ccccc2)(c2ccccc2)C1=O	/	-1	-2	-9	/	-14	/	0
COc1cc(-c2nnc(SCC(=O)Nc3ccc(C(=O)O)cc3)o2)cc(OC)c1OC	/	-1	-2	-10	/	-9	/	20
Cc1ccc(O)c(Cc2cc(C)cc(Cc3cc(C)ccc3O)c2O)c1	/	0	-4	/	/	-11	/	29
Cc1ccc(C2=NCCn3c2c2ccccc2[n+]3[O-])cc1	/	0	-3	-15	i	-24	/	-16
Cn1cc(CNC(=O)c2cc(COc3ccc4c(c3)CCCC4)on2)cn1	-16	2	-10	-3	i	-8	-7	2
CC1CCN(C(=O)Cn2nnc(-c3ccccc3)n2)CC1	5	3	1	-6	i	-14	5	-173
O=C(O)COc1ccc(-c2nccc(-c3cccs3)n2)cc1	4	/	/	-9	i	/	3	/
O=C(CN1C(=O)c2ccccc2S1(=O)=O)N1CCN(c2ccc(F)cc2)CC1	12	5	-2	-6	i	-1	0	36
O=C(NCC1CC1)c1ccc2sc([C@H]3C[C@H](O)[C@@H](CO)O3)nc2c1	/	-7	4	/	/	-1	/	-5
CCCCCCCCCCCC1=C(O)C(=O)C=C(O)C1=O	/	7	-14	-9	/	-15	/	/
COc1cc(OC)cc(C(=O)OCCNC(=O)Cn2cnc3c2c(=O)n(C)c(=O)n3C)c1	-4	/	/	-5	i	/	5	7

Entries shown so far containing two or more sulfur atoms (4):
SMILES	eIF4H FP inh	MT1-MMP act inh	MT1-MMP act inh RFP	CSC inhib	Rce1 inhib	Yeast UUG start	PABP FP inh	HIV Env fusion	others
Cn1nnnc1SCC(=O)c1cccs1	-12	5	3	-1	i	-18	-9	-42
O=C(CSc1nnc(NC(=O)c2ccc(F)cc2)s1)NC1CCCC1	-6	3	2	-4	i	-27	-4	-11
COC(=O)c1sccc1NC(=S)Nc1cc(C)cc(C)c1	0	5	7	-12	i	-21	-3	/
Cc1ccc(-c2csc(NC(=O)CSc3nc4ccccc4o3)n2)cc1	-2	-6	-1	8	i	-19	-10	?

Later entries.
SMILES	eIF4H FP inh	MT1-MMP act inh	MT1-MMP act inh RFP	CSC inhib	Rce1 inhib	Yeast UUG start	PABP FP inh	HIV Env fusion	others
CCOC(=O)COc1ccc2nsnc2c1	0	-1	6	/	i	-14	7	/
COCCN(C(=S)Nc1c(C)cc(C)cc1C)C(C)c1cccs1 (stereo not drawn)	-3	-2	1	17	i	/	2	-2
COc1cc([N+](=O)[O-])ccc1NC(=O)C[n+]1ccccc1C	-7	-1	6	-3	i	/	-3	-156
CC(O)Cc1cn(CC(=O)N2CCNCC2)nn1 (stereo not drawn)	-2	1	5	13	i	37	-3	22
CCc1nnc(NC(=O)c2ccc(NC(=O)C(C)C)cc2)s1	-12	4	4	-15	i	/	7	-16
C=C(C)C(C)(C#CCN1CCCC1)OC(C)=O (stereo not drawn)	5	-3	-4	-6	i	-4	-2	17
S=C1NCN(CCc2ccccc2)CN1Cc1ccccc1	-9	1	0	-16	i	-19	-11	12
CCCCC1=CC2=C(c3ccco3)C(=O)C(C)(OC(=O)c3ccc(OC)cc3)C(=O)C2=CN1C(CO)CO (stereo not drawn)	?	-39	9	-5	i	-8	?	-6
Cc1cc(C(=O)N2CCN(c3ccc([N+](=O)[O-])cc3)CC2)c(C)o1	-9	4	-4	-8	i	-4	-6	-23
Cc1ccc(S(=O)(=O)NCCOc2nc(N(C)C)nc(N(C)C)n2)cc1	-6	2	4	-14	i	2	-2	-1
COc1ccc(NC(=O)O[C@@H](C)[C@@H]2CN3CCc4c([nH]c5ccc(-c6ccc(OC)cc6)cc45)[C@@H]3C[C@@H]2N(C)C(=O)Nc2ccc(OC)cc2)cc1	/	2	0	/	/	-11	/	26
CC(C)OC(=O)c1cc(NC(=O)c2nn(C)cc2Br)cc(C(=O)OC(C)C)c1	3	-2	-6	-8	i	/	5	/
CC(C)c1ccc(C(=O)OCC(=O)c2c(N)n(C)c(=O)n(C)c2=O)cc1	/	7	-4	-11	/	-2	/	-11
CCCC1=Nc2cc(C(=O)NCCCOCC)ccc2Sc2ccccc21	-12	12	-7	53	i	-11	0	63
CS/C(=N\S(=O)(=O)c1cccs1)Nc1ccc(Cl)cc1	-1	6	0	4	i	/	-7	1
O=C(COc1ccc(Cl)cc1)NCc1nnc(SCC(=O)NCCc2ccccc2)o1	-14	-1	-2	17	i	-4	-6	14
Cc1cc(C(=O)CSc2ccc(F)cc2)cc(C)c1OC(=S)N(C)C	1	-5	-6	/	i	-44	2	/
Cc1c(Br)cc(C(=O)N2CCN(CCO)CC2)c(C)c1C	-2	1	4	-2	i	-15	6	-8
O=C1NC(=O)/C(=C/c2ccccc2OCc2ccccc2)S1	0	-8	-10	40	i	-5	6	17
